Screening data from PubChem BioAssay.
PrP 5UTR inh: inhibition of PrP 5' UTR reporter expression; cell-based PrP 5' UTR mRNA reporter, plate reader; inhibition, % (test concentration not listed); 340,000 tested, 0.35% active;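 active means every replicate at 50% or more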;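 further: 0 = median of the neutral control wells; tested in H4 reporter cells; numbers are from one replicate; inactives centre near -14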
Autofluor counter: flagged as autofluorescent in microsphere protease counterscreen; compound autofluorescence counterscreen, microsphere flow cytometry; hits give high values; fluorescence intensity (no concentration beside the values); 360,000 tested, 3.1% active; AID 624483;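 active means at least 3 SD above the mean of all compounds, about 16000 in these data; inconclusive means too few beads counted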;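 further: 100 nL of 1 mM stock went into each well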
BJeLR lethal: kills HRASV12-expressing BJeLR cells; BJeLR (HRASV12) viability, CellTiter-Glo ATP luminescence, 48 h; reference of the scale not given here; inhibition, % (concentration not given with the values); 300,000 tested, 0.17% active; AID 1554;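 active means replicate mean above 50%; inconclusive means above 50% but judged a plate artefact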;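 further: 50 nL library stock added to about 25 µL; numbers are from one replicate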
Mtb hypoxia rep: reduces hypoxia-regulated biosensor signal in M. tuberculosis; M. tuberculosis hypoxia-regulated fluorescent reporter, fluorescence; fluorescence inhibition, % (no concentration beside the values); 300,000 tested, 0.1% active;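 active means 35 to 45% if threefold the growth effect, above 45% if 1.5-fold the growth effect; inactive means the rest, general growth blockers included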;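 further: wells of about 50 µL received 100 nL stock; 0% = vehicle wells and 100% = reference inhibitor wells; whole bacteria with a GFP reporter of the hypoxia response; strong numbers were not always called active; many hits fall short of the cut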
Sa ugtP lethal: kills S. aureus RN4220 lacking UgtP; S. aureus RN4220 ugtP deletion, OD600 growth, 16 h; some inactives read as strong as hits; growth inhibition, % (test concentration not listed); 330,000 tested, 0.54% active;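 active means z-score under -3 and OD600 up to 0.15 on both plates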;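 further: plate controls were untreated wells for no effect and antibiotic for full effect; wells of about 80 µL received 100 nL stock; the first replicate is given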
RN4220 kill: kills Staphylococcus aureus RN4220. S. aureus RN4220 growth, OD600, 16 h. inhibition, % (concentration not given with the values). 330,000 tested, 0.33% active. AID 1259311;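 active means z-score of -3 or lower and OD600 up to 0.18 on both plates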;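 further: plate controls were untreated cells for no effect and reference antibiotic for full effect; stock transfer was 100 nL into about 80 µL; one replicate is shown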
Mtb hypoxia rep growth: recorded beside Mtb hypoxia rep, whose call it bears; growth inhibition, %; measured here: M. tuberculosis growth (absorbance);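 0% = vehicle and 100% = reference antibiotic; read after six days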
Numbers without * were called inactive; ? = inconclusive; · = no result given; & = joins results of further samples.

SMILES	PrP 5UTR inh	Autofluor counter	BJeLR lethal	Mtb hypoxia rep	Mtb hypoxia rep growth	Sa ugtP lethal	RN4220 kill
COCCn1c(-c2cccc(Br)c2)nc2c(c(=O)c3ccccc3n2C)c1=O	-23.4	5438	-8.1	4.4	-9.3	-4.4	-3.1
Brc1ccc(/C=C/C=N/Nc2nc3ccccc3s2)cc1	-58.5	11202	21.5	·	·	·	·
CC(C)CC(=O)Nc1ccccc1-c1nnn(CC(=O)N2CCOCC2)n1	-12.1	5936	-4.8	2.6	2.2	4.6	7.4
COc1cc(C)c2occ(C(C)=NO)c2c1	·	·	·	4.5	-1.3	13.9	8.4
CC(=NOCC(=O)O)c1ccc(Cl)cc1	·	·	·	-10.7	-9.8	6.3	4.3
Cc1noc(C)c1COC(=O)c1ccccc1Sc1ccccc1C#N	-10.0	3992	-1.4	3.7	6.9	-4.1	3.3
NC(=O)c1c(NC(NC(=O)c2ccco2)(C(F)(F)F)C(F)(F)F)sc2c1CCCC2	-10.5	4618	-8.3	17.3	10.5	3.7	5.1
COc1ccc(Nc2nc(N)nc(CSC(=S)N3CCCCC3)n2)cc1	-29.2	3509	-3.1	0.3	10.1	18.0	6.4
Cc1ccc(-c2nnc(Oc3ccc(NC(=O)c4ccccc4)cc3)c3ccccc23)cc1	-2.6	2544	0.5	0.7	-2.1	-15.8	5.6
NC(=O)CN1CCN(C(=O)Nc2ccccc2)CC1	-12.7	4312	-6.2	·	·	-4.3	0.2
CN(C)S(=O)(=O)c1ccc(NC(=O)c2cccnc2)cc1	-1.1	?	-7.3	-9.2	-8.3	-5.8	2.0
COc1ccc2nc(NC(C)=O)sc2c1	-94.0	4280	-3.1	13.7	18.1	-6.7	-0.8
CCN1C(=O)[C@H]2[C@@H](c3ccc(C)cc3)N3C(=O)N(c4ccc(C)cc4)C(=O)[C@@]3(Cc3ccccc3)[C@H]2C1=O	-9.5	3963	-5.0	·	·	·	·
Cc1ccccc1N=C1Nc2ccccc2CS1	-95.2	3351	4.9	-12.3	-0.4	13.8	-5.3
O=C(c1cc(N2CCOCC2)c(F)cc1[N+](=O)[O-])N1CCOCC1	-17.5	3273	-0.2	-1.0	-4.9	-0.4	-0.1
O/N=C/c1ccccc1OCc1ccc(Cl)cc1	-28.1	4686	0.5	·	·	·	·
CCOc1cc(/C=C2/SC(=O)N(CC(=O)N3CCc4ccccc4C3)C2=O)ccc1OCC(=O)O	2.9	3498	-4.1	·	·	-1.7	4.1
CC(C)(C)c1ccc(C(=O)NCC(=O)NNC(=O)c2ccccc2O)cc1	-4.5	?	-5.9	2.0	2.0	6.3	6.7
CC1CCN(C(=O)c2nc[nH]c2C(=O)OCCNC(=O)OC(C)(C)C)CC1	-8.2	2850	·	14.3	10.9	1.3	6.1
CN(C(=O)CSc1nnc(-c2c[nH]c3ccccc23)o1)C1CCS(=O)(=O)C1 (stereo unspecified)	-21.3	1954	7.6	-5.5	11.1	-15.2	0.8
O=C(Cn1nc(-c2ccccc2F)ccc1=O)Nc1ccc(S(=O)(=O)N2CCCCCC2)cc1	-20.1	2510	-3.8	7.1	7.4	39.4	6.5
CS(=O)(=O)N1CCN(c2nc(-c3ccc(F)cc3)cs2)CC1	-19.5	2355	-5.0	8.2	4.6	1.4	5.8
CC(C)Oc1cccc(C(=O)O)c1	-36.1	18055*	1.8	3.0	0.6	-3.1	2.9
C/C(=N\NC(=O)c1cccs1)c1cccnc1	-18.5	3055	2.6	·	·	·	·
Clc1ccccc1Cc1noc(CN2CCN(c3cnccn3)CC2)n1	-22.5	3320	1.6	-1.9	-8.5	-1.5	2.2
CC1Nc2ncnc(N3CCc4ccccc4C3)c2N(Cc2ccc(Br)cc2)C1=O (stereo unspecified)	-8.7	4460&5785	8.2	·	·	·	·
O=c1cc(N2CCOCC2)cnn1-c1ccccc1	-54.8	8766	-9.5	6.4	2.9	2.6	-0.2
COC(=O)c1c(C)[nH]c(C(=O)OCC(=O)NC(C)(C)C)c1C	-37.8	4531	2.9	6.9	16.8	9.3	1.5
COc1cc(C(=O)Nc2cc(C(F)(F)F)ccc2N2CCOCC2)ccc1O	-10.9	2526	0.9	-9.2	7.5	-7.1	-3.3
O=S(=O)(Cc1ccc(Cl)cc1Cl)c1ccc(Cl)cc1	-32.1	4059	·	9.3	15.8	1.0	6.4

A run of entries of the results above, for reference:
SMILES	PrP 5UTR inh	Autofluor counter	BJeLR lethal	Mtb hypoxia rep	Mtb hypoxia rep growth	Sa ugtP lethal	RN4220 kill
O/N=C/c1ccccc1OCc1ccc(Cl)cc1	-28.1	4686	0.5	·	·	·	·
CCOc1cc(/C=C2/SC(=O)N(CC(=O)N3CCc4ccccc4C3)C2=O)ccc1OCC(=O)O	2.9	3498	-4.1	·	·	-1.7	4.1
CC(C)(C)c1ccc(C(=O)NCC(=O)NNC(=O)c2ccccc2O)cc1	-4.5	?	-5.9	2.0	2.0	6.3	6.7
CC1CCN(C(=O)c2nc[nH]c2C(=O)OCCNC(=O)OC(C)(C)C)CC1	-8.2	2850	·	14.3	10.9	1.3	6.1

Other structures follow:
SMILES	PrP 5UTR inh	Autofluor counter	BJeLR lethal	Mtb hypoxia rep	Mtb hypoxia rep growth	Sa ugtP lethal	RN4220 kill
COc1ccc(S(=O)(=O)N2CCC(C(=O)NCc3cccnc3)CC2)cc1C	-21.0	5055	11.8	9.5	-0.3	12.5	1.2
Cn1c(CO)cnc1SCc1ccc(F)cc1	-8.7	4641	1.2	11.0	1.6	10.0	4.6
COc1ccc(C(=O)Nc2cccc(C)n2)cc1S(=O)(=O)N1CCCc2ccccc21	-13.9	?	·	-2.8	7.9	-13.6	9.0
O=C(Nc1cccnc1)c1ccc(Cl)c(S(=O)(=O)N2CCCC2)c1	-26.8	5364	11.7	14.6	16.2	3.0	2.8
COc1ccc(C=NNc2nc(-c3ccc(C)cc3)c(NC(C)=O)s2)cc1	·	·	·	·	·	-3.7	2.6
COc1ccc(CC(=O)N/N=C/c2cc([N+](=O)[O-])cc(Br)c2O)cc1	-6.2	3973	1.1	·	·	·	·
CNc1oc(-c2ccc(F)cc2)nc1S(=O)(=O)c1ccccc1	-22.0	3599	-11.1	6.0	0.6	-7.3	2.5
CC(C)n1cc(/C=N/NC(=O)COc2cccc3cccnc23)c2ccccc21	0.3	6742	-3.9	·	·	·	·
COc1cccc(C=NNc2nncc(-c3ccccc3)n2)c1	·	·	·	3.6	-1.8	-3.6	5.2
Cc1ccc(S(=O)(=O)c2nc(N3CCOCC3)sc2Cl)cc1	-19.3	2484	3.6	·	·	-7.3	2.4
Nc1cc2c(cc1Cl)-c1ccccc1C2	-62.4	3535	·	6.2	12.1	-4.4	-7.0
Cc1nnc(NC(=O)C2CCCN2S(=O)(=O)c2ccc(Cl)cc2)s1 (stereo unspecified)	-24.7	4411	1.5	8.9	-4.0	-0.6	0.3
Cc1ccc(NC(=O)CSc2ccccc2NC(=O)c2ccccc2Cl)cc1Cl	-20.1	1973	-1.6	16.8	0.6	-29.0	3.5
Cc1cccc(C(=O)Nc2ccc(C(=O)N/N=C/c3ccco3)cc2)c1	-12.7	5486	1.5	·	·	·	·
Cc1cc(NN=Cc2ccccc2O)c2ccccc2n1	·	·	·	72.5*	38.3*	-15.5	-2.5
COC(=O)c1ccc(/C=C2\N=C(SC)SC2=O)cc1	1.3	2204	-4.2	0.5	7.8	-0.5	5.3
O=C(C/C=N/OCc1ccc(Cl)cc1Cl)c1ccc(Cl)cc1	-29.9	22103*	8.3	·	·	·	·
c1ccc(Oc2ccc(-c3ccn[nH]3)cc2)cc1	-87.3	4826	-7.3	16.1	3.0	1.1	8.2
O=C(/C=C/c1ccc(Cl)cc1)Nc1cc(S(=O)(=O)N2CCOCC2)ccc1N1CCOCC1	-15.8	3137	·	6.3	6.1	1.8	3.4
O=C(Nc1cccc(C(=O)Nc2cccc(Br)c2)c1)c1ccccc1	-33.7	3493	-3.1	-2.4	4.5	-14.9	3.4
COc1ccccc1OCCNC(=O)CCNC(=O)c1ccccc1Cl	-15.2	6157	-7.3	12.6	6.8	6.5	0.3
COCCNC(=O)c1ccc(CS(=O)(=O)c2cccc(C(F)(F)F)c2)o1	-7.0	4003	2.7	-8.3	12.3	6.3	0.7
Cc1ccc(OCC(=O)Nc2ccc(N3CCN(C(=O)c4ccco4)CC3)cc2)cc1	-11.2	4085	-2.5	-10.8	-10.0	6.2	6.7
COc1cc2cc(CN(CCCN3CCOCC3)C(=O)Nc3ccccc3F)c(=O)[nH]c2cc1OC	-14.4	4080	6.7	8.2	-2.4	8.2	7.8
Cc1ccc(C(=O)OCC(=O)NCC(F)(F)F)cc1C	-18.9	2144	7.1	4.8	-2.6	3.3	5.6
CC(c1ccncc1)C(C)c1ccncc1 (stereo unspecified)	-44.3	4108	1.1	2.2	3.1	-0.5	5.5
Cc1cc(C)c(C(=O)Cn2nc(C)c([N+](=O)[O-])c2C)cc1C	22.7	4165	7.8	-4.7	13.3	3.0	4.7
Cc1cc(C(=O)NNC(=O)c2c(-c3c(Cl)cccc3Cl)noc2C)no1	-3.6	5614	-6.4	5.4	1.4	3.6	6.5
COC(=O)Nc1ccc(S(=O)(=O)N2CCCCC2)cc1	-11.5	9228	0.0	-2.5	3.6	-11.4	-1.3
CCN=C1SC(C(=O)Nc2cc(Cl)cc(Cl)c2)CC(=O)N1CC (stereo unspecified)	-7.6	4202	-1.2	-0.7	4.2	-3.6	-1.0
COC(=O)c1ccc(CSc2nnc(N)s2)o1	-19.7	3560	-1.9	-1.8	-0.3	5.7	9.4
COc1cc2cc(CN(CCc3cccc(C)c3)C(=S)NCCCN3CCOCC3)c(=O)[nH]c2cc1OC	-21.8	5067	11.0	-7.4	-5.4	3.8	-2.9
Cc1cc(C)nc(NC(=NCCc2c[nH]c3ccccc23)NC(=O)Nc2cccc([N+](=O)[O-])c2)n1	-12.1	2268	1.5	5.0	1.0	-31.8	2.7
O=[N+]([O-])c1ccc(-n2nncc2-c2ccccc2)cc1	-6.0	4142	-2.4	-4.2	4.0	-4.4	5.6
CCc1nnc(NC(=O)CSc2nc(C3CCCCC3)nc3ccccc23)s1	-27.0	5730	-3.4	12.2	0.8	10.4	4.4
CCOc1cc(C(=O)OCC(=O)N(C)c2ccccc2)cc(OCC)c1OCC	-8.6	3162	-10.7	3.7	-5.1	4.7	3.8
COc1ccccc1CCNCc1ccc(OC)c(OCc2ccccc2)c1	-24.5	10652	12.2	-1.3	-3.1	-6.6	0.4
COC(=O)C1=CC(C(=O)OC)C2C3=C(C(=O)[C@@]2(C)NC(=O)c2ccccc2)C(C)n2c(=O)n(C)c(=O)n2C3C1 (stereo partly specified)	·	·	·	5.0	-10.8	3.5	3.1
O=C(O)c1cc(N=Nc2c(O)[nH]c3ccc([N+](=O)[O-])cc23)ccc1Cl	-16.6	3833	-4.7	11.7	-8.3	6.4	4.1
CSCc1cc(N(C)C)nc(SCc2ccc(Cl)cc2Cl)n1	-4.0	11673	13.8	10.3	7.9	63.4	-6.8
O=C1c2cccc3cccc(c23)C(=O)N1CCCSc1ncn[nH]1	-9.4	4793	-0.5	-17.5	2.9	-3.0	-0.6
Cc1cc(NC(=O)CN2C(=O)NC(CCc3ccccc3)C2=O)no1 (stereo unspecified)	-10.7	4287	4.0	12.2	-0.5	5.2	1.1
CCN=C1SC(CC(=O)Nc2ccc(C)cc2)C(=O)N1CC (stereo unspecified)	-5.9	4722	3.6	-11.4	-8.5	2.7	6.8
CC(=O)Nc1ccc(NC(=O)c2cc[n+]([O-])cc2)cc1	-28.6	3745	-0.7	3.7	-0.8	7.8	0.6
CN(C(=O)c1cccnc1)c1nnc(-c2cnccn2)s1	-19.3	2359	-0.5	·	·	5.3	-2.8
CC1Cc2cc(/C(O)=C3/C(=O)C(=O)N(CCN4CCOCC4)C3c3ccc(N(C)C)cc3)ccc2O1 (stereo unspecified)	-4.7	5068	8.5	-6.4	-4.1	11.9	3.1
Cn1c(=NNC(=O)c2ccccc2Br)sc2ccccc21	·	·	·	0.8	2.1	3.2	5.2
CN(CC(=O)Nc1ccccc1C(F)(F)F)C(=O)C1CC1	-9.3	2938	·	4.1	-1.2	3.6	4.7
